Source: PubChem BioAssay (several laboratories)
eIF4H inh: inhibitors of RNA binding by human eIF4H; eIF4H fluorescence polarization binding assay; Q15056; 290,000 tested, 0.94% active; inhibition, % at 35 µM;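 active = 50% or more with normal probe brightness, or confirmed in later tests; about a fifth of its hits are not listed in these tables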;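 also: calls also rest on retests at 20 µM and on dose response follow-up; 0% = protein and probe with vehicle and 100% = probe without protein; strong numbers were not always called active; many hits fall short of the cut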
Rce1 inh: yeast Ras-converting enzyme inhibition | calls only | Q03530 | yeast membranes, quenched prenylated peptide cleavage fluorescence | 290,000 tested, 0.27% active;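 active = fall in fluorescence gain of 50% or more versus controls, with final raw signal at or below 3038400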;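 also: plate controls were neutral control wells for no effect and wells lacking membranes for full effect; tested at 10 µM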
Target sequence (Q03530 whole entry, looked up): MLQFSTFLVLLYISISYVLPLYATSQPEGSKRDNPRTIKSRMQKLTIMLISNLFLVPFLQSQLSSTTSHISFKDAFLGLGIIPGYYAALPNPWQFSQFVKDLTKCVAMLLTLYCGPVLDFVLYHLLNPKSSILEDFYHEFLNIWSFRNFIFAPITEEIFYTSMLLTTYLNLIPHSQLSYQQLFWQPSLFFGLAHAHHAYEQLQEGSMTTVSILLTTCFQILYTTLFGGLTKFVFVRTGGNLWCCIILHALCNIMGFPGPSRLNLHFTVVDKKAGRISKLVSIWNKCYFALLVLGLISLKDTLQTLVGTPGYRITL
HIV Env fusion: blocks HIV Env-driven cell-cell fusion; inhibition, % at 12.3 µM; 360,000 tested, 1.1% active; HeLa-JRFL Env/CEM21 cell fusion, luciferase;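 active = mean replicate inhibition score of at least 50 and every replicate individually at or above 50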;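 also: 0% = plate neutral controls and 100% = maraviroc near 300 nM; one replicate is shown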
UUG fidelity: yeast start codon fidelity modulation. S. cerevisiae UUG-firefly luciferase reporter, luminescence/redox ratio. activity score, % at 18.7 µM. 350,000 tested, 0.13% active;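 active = replicate mean at a twofold rise or more, about +100% in these data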;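 also: firefly luciferase made from a UUG start codon reports start codon fidelity; reporter light over untreated wells divided by growth signal over untreated wells; some hits fall short of that in this replicate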
CSC inhib: cancer stem cell inhibition; cancer stem cell-like cells viability, luminescence; inhibition, % at 7.5 µM; 300,000 tested, 1.1% active;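 active = mean at 75% or more and at least half the replicates too; tested in HMLE shEcad cells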;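 also: 0% = median of negative and 100% = median of positive control wells; the first replicate is given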
MT1-MMP act inh: blocks activation of human MT1-MMP; P50281; HT1080 RFP-PRO-GFP cells, GFP/RFP ratio fluorescence, overnight; percent of plate control window, DMSO zero; GFP/RFP ratio change, % at 20 µM; 360,000 tested, 0.061% active; AID 651647;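 active = GFP/RFP ratio change of at least 30% with cell ATP level not reduced by more than half and red fluorescence within 50% of control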; also: strong numbers were not always called active
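Read-out: GFP/RFP fluorescence ratio; Test system: RFP-PRO-GFP reporter HT1080 cells; Compound dosing: single-point 20 µM compound, 1% DMSO; Times: overnight compound exposure at 37 °C.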
PABP FP inh: PABP-poly(A) binding inhibition; P11940; PABP-poly(A) RNA binding, fluorescence polarization; inhibition, % at 35 µM; 290,000 tested, 1% active; AID 2014;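 active = 50% or more with normal probe brightness, or confirmed in later tests; about a fifth of its hits are not listed in these tables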;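 also: calls also rest on retests at 20 µM and on dose response follow-up; controls were probe without protein and protein plus probe with vehicle; some compounds called inactive have numbers as strong as hits; many hits fall short of the cut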
eIF4H inh retest: further read-out of eIF4H inh, marked with its call; inhibition, %; compound at 20 µM; confirmation average;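 mean of two retest wells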
PABP FP inh retest: second read-out of PABP FP inh, no call of its own (marks repeat the call); inhibition, %; compound at 20 µM; confirmation repeats;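 mean of two retest wells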
MT1-MMP act inh RFP: further read-out of MT1-MMP act inh, marked with its call; RFP signal change, %; measured here: RFP expression control read;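 0 = vehicle wells; hits needed this value within 50% of zero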
* = called active by the depositor; i = inactive; . = no result given. Some of the compounds tested. The share of hits here may be higher or lower than overall.

SMILES	eIF4H inh	Rce1 inh	HIV Env fusion	UUG fidelity	CSC inhib	MT1-MMP act inh	MT1-MMP act inh RFP	PABP FP inh	others
COc1ccc(-n2nnnc2SC(C)C(=O)NC2CCCC2)cc1 (centres undefined)	.	.	4	-13	.	-2	0	.
O=C(Nc1ccccc1N1CCCC1)c1cccnc1Cl	0	i	.	-14	-20	2	5	-2
COc1ccc(CNC(=O)COC(=O)c2ccc(OCc3c(C)noc3C)cc2)cc1OC	90*	i	-11	.	-13	1	-1	-8	eIF4H inh retest=51*;PABP FP inh retest=50
CCN(CC)S(=O)(=O)c1ccc(N2CCOCC2)c(NC(=S)NC(=O)c2ccco2)c1	-8	i	31	-20	-3	0	-5	4
COc1ccc(OC)c(S(=O)(=O)NC(=O)C2(C)CCN2C(=O)Cc2ccccc2Cl)c1 (centres undefined)	.	.	11	-10	.	0	3	.
COCCNC(=S)Nc1ccccc1[N+](=O)[O-]	-1	i	9	.	-9	-1	2	9
COc1ccc(Cl)cc1N(CC(=O)N(C)C)S(=O)(=O)c1ccc(C)c([N+](=O)[O-])c1	-3	.	-21	15	-3	-1	0	6
COc1ccccc1-c1cc(C(F)(F)F)nc(N2CCN(c3ccccc3)CC2)n1	-3	i	-4	-17	19	2	1	1
Cc1ccc(S(=O)(=O)NC(C(=O)N2CCOCCOCCOCC2)c2ccccc2)cc1 (centres undefined)	-6	i	21	.	-7	2	1	10
CCCNC(=S)N1CCN(C)CC1	2	i	10	-1	-6	4	4	7
Cc1ccc(N2CCCCn3c2nc2c3c(=O)[nH]c(=O)n2C)cc1	4	i	.	-6	6	4	5	-3
Cc1ccc2nc3c(cc2c1)c(NC(=O)C(C)(C)C)nn3CC(C)C	-2	i	14	0	-12	.	.	3
CCNS(=O)(=O)c1ccc(CCC(=O)Nc2ccc(C(=O)OC)cc2)cc1	-4	i	12	-1	-7	1	1	8
CCOC(=O)c1c(NC(=O)OC)sc2c1CCC2	10	i	-69	-11	4	1	0	9
O=C(C1CCCN1S(=O)(=O)c1cccc2cccnc12)N1CCn2c1nc1ccccc12 (centres undefined)	-7	i	.	-2	-16	-2	4	-19
Cc1ccc(/C=N/NC(=O)c2cc(-c3ccccc3)nc3ccccc23)o1	1	i	-125	-7	-23	-9	-12	11
Cc1cnc(=O)[nH]c1SCc1ccc([N+](=O)[O-])cc1	-3	i	22	-17	-25	-2	1	4
CC(=O)c1cccc(NC(=O)C2CCN(S(=O)(=O)c3ccc(C)cc3)CC2)c1	0	i	.	2	1	-2	-3	-16
COCCN(C(=O)COC(=O)/C=C/c1cccc(OC)c1)c1c(N)n(CC(C)C)c(=O)[nH]c1=O	.	.	-494	-1	.	3	2	.
Cc1cc2nc(-c3ccc(SCC(=O)N4CCN(C(=O)c5ccco5)CC4)nc3)[nH]c2cc1C	16	i	-57	-22	-4	8	-3	3
N#Cc1ccc(NC(=O)Nc2ccc(Cl)cc2)cc1	2	i	.	-8	.	-29	-37	-1
CC1CCCCC1NC(=O)c1nn(C)c2c1CS(=O)(=O)c1ccccc1-2 (centres undefined)	15	i	6	-4	-8	3	0	-7
O=C(CCc1ccccc1)Nc1ccc(Cl)cn1	7	i	-308	-13	49	-10	-12	0
CCOc1c(OC(C)=O)ccc(/C=C/c2ccc3cccc(OC)c3n2)c1[N+](=O)[O-]	2	i	-3	-8	43	6	-12	0
Cn1nc([N+](=O)[O-])nc1Sc1nnnn1-c1ccc(C(=O)O)cc1	-2	i	7	.	-3	4	5	1
CCOc1ccc(NC(=O)COc2ccc(C(=O)NC(C)c3ccc(S(N)(=O)=O)cc3)cc2OC)cc1 (centres undefined)	.	i	1	-5	-4	2	-4	.
CCc1nnc(NC(=O)CC23CC4CC(CC(C4)C2)C3)s1	2	i	10	-20	-5	0	6	-9
Cc1ccc(/C=N/N2CCN(Cc3ccc(Cl)cc3)CC2)o1	6	i	.	-20	-3	1	-5	15
N#Cc1ccc(-c2nc3ccc(Cl)cn3c2Cc2cccc(Cl)c2)cc1	.	.	-128	-8	.	1	-10	.
Cc1cc([N+](=O)[O-])ccc1NC(=O)c1cccc(NC(=O)C(C)C)c1	-7	i	7	.	-6	3	1	-11
CC(/C=C1\SC(=S)N(c2ccc(C(=O)O)cc2)C1=O)=C\c1ccccc1	5	i	20	.	76*	1	-4	3
Cc1ccc(NC(=O)COC(=O)C2COc3ccccc3O2)cc1S(=O)(=O)N1CCOCC1 (centres undefined)	-9	i	-18	.	-7	1	3	5
COc1cccc(NC(=O)CN(C)C(=O)Cn2[nH]c(=O)c3ccccc3c2=O)c1	.	.	-1	25	-6	0	4	.
O=C(Nc1cccc(-n2cnnn2)c1)c1ccc(Cl)cc1Cl	-13	i	-3	-12	-1	0	-7	-3
CC(=O)N1CCN(c2ccc(Nc3ncnc4c3oc3ccccc34)cc2)CC1	-2	i	.	-2	40	0	-14	28
CC(C)CC(=O)NC(=S)NCCc1ccccc1	0	i	-42	-11	-7	-15	-4	17

Grouped by structure: the compounds so far with a COOH group
SMILES	eIF4H inh	Rce1 inh	HIV Env fusion	UUG fidelity	CSC inhib	MT1-MMP act inh	MT1-MMP act inh RFP	PABP FP inh	others
Cn1nc([N+](=O)[O-])nc1Sc1nnnn1-c1ccc(C(=O)O)cc1	-2	i	7	.	-3	4	5	1
CC(/C=C1\SC(=S)N(c2ccc(C(=O)O)cc2)C1=O)=C\c1ccccc1	5	i	20	.	76*	1	-4	3

Nothing new here: an excerpt of the list.
SMILES	eIF4H inh	Rce1 inh	HIV Env fusion	UUG fidelity	CSC inhib	MT1-MMP act inh	MT1-MMP act inh RFP	PABP FP inh	others
O=C(CCc1ccccc1)Nc1ccc(Cl)cn1	7	i	-308	-13	49	-10	-12	0
CCOc1c(OC(C)=O)ccc(/C=C/c2ccc3cccc(OC)c3n2)c1[N+](=O)[O-]	2	i	-3	-8	43	6	-12	0
Cn1nc([N+](=O)[O-])nc1Sc1nnnn1-c1ccc(C(=O)O)cc1	-2	i	7	.	-3	4	5	1
CCOc1ccc(NC(=O)COc2ccc(C(=O)NC(C)c3ccc(S(N)(=O)=O)cc3)cc2OC)cc1 (centres undefined)	.	i	1	-5	-4	2	-4	.
CCc1nnc(NC(=O)CC23CC4CC(CC(C4)C2)C3)s1	2	i	10	-20	-5	0	6	-9
Cc1ccc(/C=N/N2CCN(Cc3ccc(Cl)cc3)CC2)o1	6	i	.	-20	-3	1	-5	15
N#Cc1ccc(-c2nc3ccc(Cl)cn3c2Cc2cccc(Cl)c2)cc1	.	.	-128	-8	.	1	-10	.
Cc1cc([N+](=O)[O-])ccc1NC(=O)c1cccc(NC(=O)C(C)C)c1	-7	i	7	.	-6	3	1	-11
CC(/C=C1\SC(=S)N(c2ccc(C(=O)O)cc2)C1=O)=C\c1ccccc1	5	i	20	.	76*	1	-4	3
Cc1ccc(NC(=O)COC(=O)C2COc3ccccc3O2)cc1S(=O)(=O)N1CCOCC1 (centres undefined)	-9	i	-18	.	-7	1	3	5
COc1cccc(NC(=O)CN(C)C(=O)Cn2[nH]c(=O)c3ccccc3c2=O)c1	.	.	-1	25	-6	0	4	.
O=C(Nc1cccc(-n2cnnn2)c1)c1ccc(Cl)cc1Cl	-13	i	-3	-12	-1	0	-7	-3
CC(=O)N1CCN(c2ccc(Nc3ncnc4c3oc3ccccc34)cc2)CC1	-2	i	.	-2	40	0	-14	28
CC(C)CC(=O)NC(=S)NCCc1ccccc1	0	i	-42	-11	-7	-15	-4	17

The list continues.
SMILES	eIF4H inh	Rce1 inh	HIV Env fusion	UUG fidelity	CSC inhib	MT1-MMP act inh	MT1-MMP act inh RFP	PABP FP inh	others
Cc1cccc(NC(=O)N2CCC(C(=O)c3ccc(F)cc3)CC2)c1	0	i	21	-20	-19	9	7	2
O=C(Nc1nccs1)c1cc2sccc2n1Cc1ccc(F)cc1	-18	i	-54	-17	16	-2	-3	2
Cn1cc(C(=O)c2cccc(Cl)c2Cl)cc1C(=O)O	3	i	-28	-16	-9	-4	-4	5
CC1C(=O)N2CCCc3cc(S(=O)(=O)NCc4ccc(Cl)cc4)cc1c32 (centres undefined)	.	i	-2	17	-1	2	-3	.
Cc1ccc(C(=O)NNC(=O)CCCCC(=O)NNC(=O)c2ccc(C)cc2)cc1	1	i	-3	-4	-14	-3	0	6
O=C(OCc1c(-c2ccccc2)ncc2ccccc12)c1ccc(Br)cc1	.	.	14	-12	1	6	-7	.
Cc1ccc(Nc2cc(=O)oc3ccccc23)c(C)c1	-8	i	-1	-17	47	1	-4	-6
Cn1c(=NC(=O)c2ccccc2[N+](=O)[O-])sc2cc(S(C)(=O)=O)ccc21	-5	i	-45	-34	-2	-1	-4	3
CN(C)/N=C/C=C1\CCC/C(=C\c2ccc(F)c(F)c2)C1=O	2	i	-52	.	85*	-8	-11	-7
Cc1sc(-c2ccccn2)nc1OC(=O)c1cccc(Cl)c1Cl	-12	i	-35	-24	.	1	1	-4
O=C(NCc1ccco1)c1cc2nc(C3CC3)cc(C(F)(F)F)n2n1	-3	i	.	-19	0	1	0	-3
COc1ccc(OC)c(C2=NOC(C(=O)NCc3cccs3)C2)c1 (centres undefined)	1	.	-11	.	26	1	1	24
Cc1ccc(NC(=O)CN2CCN(CCN=CC3=C(O)CC(c4ccc(C)cc4)CC3=O)CC2)cc1 (centres undefined)	-9	i	8	.	-4	13	8	1
COc1ccccc1C(=O)n1nc(-c2cccnc2)nc1NCc1ccccc1	6	.	9	-18	.	0	0	-14
CC(C)NC(=O)c1sc2nc3c(c(-c4cccs4)c2c1N)CN(C)CC3	127	i	.	-12	-23	-11	12	120	eIF4H inh retest=-2;PABP FP inh retest=-4
CC(=O)Nc1ccc(N(C(=O)CNC(=O)c2ccco2)C(C(=O)NCc2ccco2)c2ccccc2)cc1 (centres undefined)	-2	i	-4	-9	1	-8	1	12
Cc1cc(C(F)(F)F)nn1CC(=O)NCc1ccccc1	-6	i	.	.	-8	8	7	0
CCOC(=O)c1ccc(-c2ccc3c(c2)CCC3)nc1C	-3	i	-187	-12	-7	4	3	-9
COc1ccccc1C(=O)Nc1sc2c(c1C(=O)NCc1ccco1)CCCC2	1	i	-69	-12	-6	-4	-4	12
COc1ccccc1-c1nnc(NC(=O)c2ccc(S(=O)(=O)N3CCOCC3)cc2)o1	8	i	-10	-16	21	-4	-1	16
COc1cc(OC)cc(C(=O)Nc2nnc(-c3cccnc3)o2)c1	0	i	-2	.	10	0	0	-4
CCN1C(=O)N(CC)C2C1N(C(C)=O)C(=O)N2C(C)=O (centres undefined)	1	i	.	-10	8	0	-1	17
Cc1sc2nc(COC(=O)C(NC(=O)c3ccc(Cl)cc3Cl)C(C)C)[nH]c(=O)c2c1C (centres undefined)	43	i	-9	-14	.	-10	0	4
NNC(=O)COc1ccc(F)cc1	-3	i	-5	.	-7	3	4	-1
COc1ccc(/C=C2\SC(=S)N(CCC(=O)N3CCCCC3)C2=O)cc1	58	i	18	-15	3	-2	-2	11	eIF4H inh retest=4;PABP FP inh retest=4
O=CNC(Cc1ccccc1)C(=O)O (centres undefined)	-4	i	-26	-12	-14	-5	0	14
Cc1ccc(CSc2nnc(-c3ccncc3)o2)c(C)c1	6	i	14	4	-1	1	-1	5
CSCC[C@H](NC(=O)c1cccs1)C(=O)N1CCC2(CC1)NCCc1[nH]cnc12	-3	i	0	-16	-13	3	8	2
CCCCCC/C(C=O)=C\c1ccccc1	.	.	.	2	6	1	8	.
CC(=O)NN1C(=O)c2ccccc2NC1c1ccccn1 (centres undefined)	-4	i	-6	-5	-24	14	5	0
CN1C[C@@H]2[C@@H]3C(=O)N(Cc4ccccc4)C(=O)[C@@H]3[C@](Cc3ccccc3)(C1=O)N2C(=O)c1ccc(C(F)(F)F)cc1	.	.	16	25	.	-3	4	.
